Bioassay records (PubChem BioAssay)
NPYLR7 ag – agonists of mosquito NPYLR7 receptor, primary screen, cell-based, Aedes aegypti, calcium fluorescence, mosquito biting behavior | AID 1259423, 2018 | activation, % at 10 µM | HEK293T NPYLR7/Galpha15, GCaMP6s calcium fluorescence | actives 0.15% (n = 270,000) | Aedes aegypti neuropeptide Y-like receptor 7 (NPYLR7); in the data active = activation above about 40%;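 also: 0% = vehicle and 100% = reference agonist at the receptor; some compounds past the cut are filed as inactive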
NPYLR7 ag max-min – also measured in NPYLR7 ag; calls as there; activation, %; measured here: Max-Min RFU normalised activation; some inactives read as strong as hits;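 span of the calcium signal over five minutes; 0% = vehicle and 100% = native peptide agonist; compound fluorescence can raise it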
* marks the source's active call; other numbers are inactive results; & = joins results of further samples.

SMILES | NPYLR7 ag | NPYLR7 ag max-min
COc1ccc(C)c2sc(N(CCCn3ccnc3)C(=O)c3ccco3)nc12 | -12 | -16
CCOc1ccc(Nc2ccc3noc4c3c2C(=O)c2ccccc2-4)cc1 | -16 | -22
COCCN(CC(=O)Nc1nc(CC(=O)NCCc2ccccn2)cs1)C(=O)c1ccc(Cl)c(Cl)c1 | -6 | 1
COCCCNC(=O)C(NC(=O)c1ccccc1F)C1CCN(C(=O)c2ccccc2OC)CC1 (stereo not drawn) | -1 | 1
CCOC(=O)C1=C(O)/C(=C\c2cccc(C)n2)SC1=Nc1ccc([N+](=O)[O-])cc1 | -9 | -6
O=C(C1CCCN(C2CCN(Cc3cnc[nH]3)CC2)C1)N1CCCC1 (stereo not drawn) | -5 | -7
C[C@H](CCC(=O)O)[C@H]1CC[C@H]2[C@@H]3CC[C@@H]4C[C@H](O)CC[C@]4(C)[C@H]3CC[C@]12C | -3 | -5
Cc1ccc(C2(CNC(=O)c3ccccc3COC(=O)c3ccccc3)CCOCC2)cc1 | 0 | -3
Cc1noc(C)c1CN1CCN(C(C)c2nc3ccccc3s2)CC1 (stereo not drawn) | -2 | -4
CCn1c(=O)c2c(nc3n2CC(C)=NN3Cc2ccccc2Cl)n(C)c1=O | -7 | -8
O=C(Nc1nc(-c2cccs2)c(C(=O)C(F)(F)F)s1)c1ccc(F)cc1 | 0&-6 | -6&-13
CCN(CC)CCN(C(=O)c1ccc([N+](=O)[O-])o1)c1nc2c(OC)ccc(Cl)c2s1 | 11 | 5
O=S(=O)(c1cccc(Cl)c1Cl)N1CCN(CCCOC(c2ccc(Cl)cc2)c2ccc(Cl)cc2)CC1 | 5 | 3
COC(=O)C1=C(C)N(C)C(C)=C(C(=O)OC)C1c1cc(Br)ccc1OC | 11 | 7
CC(C)n1cnnc1CCNC(=O)CC1CCc2ccccc21 (stereo not drawn) | 22 | 12
COc1cccc2cc(-c3csc(Nc4ccc(C(C)=O)cc4)n3)c(=O)oc12 | -5 | -11
COc1ccc(NCC2(c3ccnc(-c4ccc(S(C)(=O)=O)cc4)c3)CC2)cn1 | 16 | 31
Cc1c(S(=O)(=O)CCNC(=O)NC2CCCCC2)c2ccccc2n1Cc1ccccc1 | 2 | 11
Cc1nc2scc(C)n2c(=O)c1NC(=O)c1cccc(C(F)(F)F)c1 | 12 | -1
CCc1nc2ccc(C(=O)NCCCN3CCCC3=O)cn2c1N(C)C(=O)Nc1ccccc1OC | 18 | 14
O=S(=O)(c1ccc(Cl)cc1)N1CCN(c2nc3ccccc3nc2-c2ccccc2)CC1 | 5 | 2
CC(C)(C)c1ccc(OCCn2cc(/C=N\n3cnnc3)c3ccccc32)cc1 | 1 | -2
COc1cc2c(cc1OC)CN(S(=O)(=O)c1ccc(OC)c(N3CCN(C(=O)c4cc(F)ccc4Cl)CC3)c1)CC2 | 24 | 20
Cc1ccc(C(CC(=O)NCCC(c2ccccc2)c2ccccc2)c2c[nH]c3ccccc23)c(C)c1 (stereo not drawn) | -7 | 5
O=C(Cn1ccc2ccc(Cl)cc21)Nc1ccnn1C1CCS(=O)(=O)C1 (stereo not drawn) | 2 | 2
COC(=O)c1ccc(NC(=O)Cc2cc(-c3cc4ccccc4o3)on2)cc1 | 9 | 11
C=CCN1C(=O)NC(c2ccccc2C(F)(F)F)C2=C1CN(C(Cc1ccccc1)C(=O)NCCCOC)C2=O (stereo not drawn) | -2 | 4
COc1ccnc(N2CCCN(S(=O)(=O)c3ccc(C)cc3)CC2)n1 | 13 | 6
OCCSc1nnc2c(n1)[nH]c1ccccc12 | -4 | -5
CCN(Cc1nc2cc(Cl)ccc2c(=O)[nH]1)C(=O)c1cnn2c(C)cc(C)nc12 | 12 | 5
COCCCNC(=O)CSc1nc(Cl)cc(N2CCN(C(=O)c3ccc(OC)cc3)C(C)C2)n1 (stereo not drawn) | 0 | 11
CCCNC(=O)CNC1(c2ccc(Br)cc2)CCC1 | 7 | 5
Cc1ccc(-n2cccn2)c(CN2CCN3C(=O)CN(C)C(=O)C3C2)c1 (stereo not drawn) | 6 | 3
O=C(O)COc1cccc(CN2CCCC(O)(CO)C2)c1 (stereo not drawn) | -1 | 20
CC(C)CN(C1CCS(=O)(=O)C1)S(=O)(=O)c1ccc2ccccc2c1 (stereo not drawn) | -1&-2 | -2&-5
COc1ccc(CNC(=O)/C(C#N)=C/N2CCN(c3ccc(F)cc3)CC2)cc1 | -5 | -4
CN(CCc1ccccn1)c1ccc2c(-c3ccccc3F)noc2n1 | -1 | -4
CC(C)CNC(=O)c1cn(C2CCN(c3nccs3)CC2)nn1 | 16 | 10
COc1ccccc1-n1c(=O)c2ccccc2n(Cc2ccc(C(=O)NC3CC3)cc2)c1=O | 18 | 16
COCCN=c1scc(-c2cccc(Br)c2)n1N=Cc1ccc2c(c1)OCO2 | 2 | 3
Cn1c(=O)n(C)c2cc(CNC(=O)c3cccc4ccnn34)ccc21 | 4 | 2
CC(C)n1nc2c(cc1=O)CN(CCCS(N)(=O)=O)CC2 | 0 | 0
COC(=O)C1(C)Cc2ccccc2C(=O)O1 (stereo not drawn) | -3 | -5
CN(CCS(=O)(=O)Oc1ccccc1)C1CCc2ccccc21 (stereo not drawn) | 7 | 8
C=CCC1(CC=C)CCCN1C(=O)C(=O)c1ccccc1 | -4 | -6
O=C(c1c(Cl)cccc1Cl)N1CCC(Cc2ccc(F)cc2)CC1 | 5 | 4
C=CCCC(O)CN(CCOC)Cc1c(-c2ccccc2)nn(C)c1Oc1ccc(F)cc1F (stereo not drawn) | 29 | 23
CCCCCC(=O)N1CCN(c2cc(Cl)nc(SCC(=O)N3CCOCC3)n2)CC1C (stereo not drawn) | -16 | -5
O=S(=O)(CC1CCOC1)N1CC2(CCCC2)c2c(F)cccc21 (stereo not drawn) | -1 | -5
CC(NC1CCSCC1)c1ccccc1-n1cccn1 (stereo not drawn) | 7 | 3
CC1(C(=O)Nc2cccc3ccccc23)CCN1C(=O)Cc1ccc(Cl)cc1Cl (stereo not drawn) | 9 | 7
COc1cccc(OCC2c3ccsc3CCN2C(=O)CN(C(=O)c2ccco2)C2CC2)c1 (stereo not drawn) | -4 | 1
Oc1cccc(-c2nccc3n[nH]c(C4CC4)c23)c1 | 2 | 1
CC(C)NC(=O)[C@@H]1C[C@@H](N)CN1C(=O)c1ccc(CN2CCCC2)o1 | -3 | -5
Clc1ccc(C2c3cccn3CCCN2Cc2ccoc2)cc1Cl (stereo not drawn) | 6 | 4
Cc1ccsc1CNc1ccccc1C(=O)NCCN1CCOCC1 | -1 | -6
C=CCn1c(N/N=C\c2ccc(Cl)cc2)nc2c1c(=O)[nH]c(=O)n2C | 2 | -2
CN(C)C(=O)C1CCCN1c1ccc2ccc(F)cc2n1 (stereo not drawn) | 7 | 2
CC(C)(CNC(=O)c1nc2n(n1)-c1ccccc1S(=O)(=O)N2)N1CCOCC1 | 1 | -1
COc1cc2c(-c3ccccc3)c(C)oc2cc1CN1CCN(C)C(CCO)C1 (stereo not drawn) | 12 | 2

(cont.)
SMILES | NPYLR7 ag | NPYLR7 ag max-min
CCc1cccc2sc(NC(=O)c3c(F)cccc3F)nc12 | -5 | -4
COc1ccc(-c2cc(N)n(-c3ccc(C(=O)Nc4cccc(SC)c4)cc3)n2)cc1 | -7 | -10
CCc1nnc(NC(=O)C=Cc2ccc(OC(C)C)c(OC)c2)s1 | -1 | 10
C[C@@H]1Oc2ccccc2C=C1/C=C/C(=O)O | 2 | 2
O=CNCCc1nc2ccccc2n1Cc1c(F)cccc1Cl | 2 | 7
C=CCCC(O)CN(Cc1ccco1)Cc1c(C)nn(-c2ccccc2)c1Oc1ccccc1OC (stereo not drawn) | -11 | -6
Cc1ccc2nc(N(CCCN(C)C)C(=O)c3ccc(Cl)s3)sc2c1 | -1 | -1
Cc1nc2ncc3c(=O)n(-c4ccc5c(c4)OCCO5)ccc3n2n1 | 3 | 5
COC(=O)c1ccc(C(=O)OC)c(NC(=O)c2cc(-c3ccc(C)o3)nc3ccccc23)c1 | 0 | -4
Cn1c(NCc2ccccc2)nc2cnc(-c3cccc(F)c3)cc21 | 5 | -6
O=C1C(C(c2ccc(F)cc2)N2CCOCC2)Sc2nc(-c3ccco3)nn21 (stereo not drawn) | 1 | -1
COC(=O)c1c(C)[nH]c(C(=O)C(C)OC(=O)[C@H](C)N2C(=O)C3CC=CCC3C2=O)c1C (stereo partly drawn) | 3 | 3
N#CC1(c2nc(-c3ccc(Oc4ccc(F)cc4)nc3)no2)CCC1 | 12 | -4
COc1ccc(-n2nc(C(=O)N3CCOCC3)c(=O)n(Cc3cccc(C(F)(F)F)c3)c2=O)cc1OC | 12 | 9
Cc1cc(C(C(=O)O)N2CCC(O)CC2)ccc1F (stereo not drawn) | 0 | -4
Cc1cc(C)n(-c2ccc(C(=O)NCc3cccnc3)cc2)n1 | 16 | 7
COC(=O)COc1ccc(/C=C2\C(=O)NC(=O)N(C)C2=O)cc1OC | -2 | -5
Cc1cc(C(=O)CSc2nnc(N)s2)ccc1Cl | 3 | 11
CCOC(=O)c1cc(-c2ccc(N3CCN(C(=O)c4ccco4)CC3)cc2)n(-c2cccc(F)c2)n1 | 18 | 15
COc1ccc(-c2cc(C(=O)N(CCN(C)C)Cc3ccccc3)c(C)n2-c2ccccc2)cc1 | -6 | 1

Sorted by molecular weight (largest number first): part of the list above.
SMILES | NPYLR7 ag | NPYLR7 ag max-min
COc1ccc(-n2nc(C(=O)N3CCOCC3)c(=O)n(Cc3cccc(C(F)(F)F)c3)c2=O)cc1OC | 12 | 9
CCOC(=O)c1cc(-c2ccc(N3CCN(C(=O)c4ccco4)CC3)cc2)n(-c2cccc(F)c2)n1 | 18 | 15
C=CCCC(O)CN(Cc1ccco1)Cc1c(C)nn(-c2ccccc2)c1Oc1ccccc1OC (stereo not drawn) | -11 | -6
COC(=O)c1ccc(C(=O)OC)c(NC(=O)c2cc(-c3ccc(C)o3)nc3ccccc23)c1 | 0 | -4
COc1ccc(-c2cc(N)n(-c3ccc(C(=O)Nc4cccc(SC)c4)cc3)n2)cc1 | -7 | -10
COC(=O)c1c(C)[nH]c(C(=O)C(C)OC(=O)[C@H](C)N2C(=O)C3CC=CCC3C2=O)c1C (stereo partly drawn) | 3 | 3
O=C1C(C(c2ccc(F)cc2)N2CCOCC2)Sc2nc(-c3ccco3)nn21 (stereo not drawn) | 1 | -1
COC(=O)COc1ccc(/C=C2\C(=O)NC(=O)N(C)C2=O)cc1OC | -2 | -5
N#CC1(c2nc(-c3ccc(Oc4ccc(F)cc4)nc3)no2)CCC1 | 12 | -4
Cc1nc2ncc3c(=O)n(-c4ccc5c(c4)OCCO5)ccc3n2n1 | 3 | 5
O=CNCCc1nc2ccccc2n1Cc1c(F)cccc1Cl | 2 | 7
CCc1cccc2sc(NC(=O)c3c(F)cccc3F)nc12 | -5 | -4
Cc1cc(C)n(-c2ccc(C(=O)NCc3cccnc3)cc2)n1 | 16 | 7
Cc1cc(C(C(=O)O)N2CCC(O)CC2)ccc1F (stereo not drawn) | 0 | -4

Following part.
SMILES | NPYLR7 ag | NPYLR7 ag max-min
Cc1nn(C)c(Oc2ccc(Cl)cc2)c1CN1CCOC(CN)C1 (stereo not drawn) | 14 | 12
O=C1NC(=S)N/C1=C/c1cc(I)cc(I)c1O | 51 | 24
CCSc1nnc(CCc2c(C)[nH]c(=O)n(C)c2=O)o1 | -5 | -12
Cn1c(-c2c(-c3ccccc3)n[nH]c2-c2ccncc2)nc2ccccc21 | 3 | 2
CC(=O)Nc1ccc(CN2C(=O)CON=C2c2ccc(C)cc2)cc1 | 7 | 3
O=C(c1nnc2n1CCN(Cc1ccc3ccccc3c1)C2)N1CCCCC1 | 12 | 4
CN(CCCNC(=O)C1CCCCC1C(=O)N1CCC(C#N)(c2ccccc2)CC1)c1ccccc1 (stereo not drawn) | -12 | -17
CS(=O)(=O)CCSc1nccn1-c1ccc(Br)cc1 | 1 | 7
c1ccc2nc(C3=NCCN3)cnc2c1 | 1&-6 | 0&-11
C=CCn1c(C)c(C)n2c3c(=O)n(Cc4ccccc4C)c(=O)n(C)c3nc12 | 0 | 3
COc1ccc2c(c1)OC1=C(C(=O)CCC1)C2C1C(=O)CCCC1=O (stereo not drawn) | 2 | -1
O=C1CC2(CCN(C(=O)c3ccc(-c4ccccc4Cl)o3)CC2)CN1 | 10 | 7
O=S(=O)(Cc1ccccc1)NC1CCc2c(O)cccc21 (stereo not drawn) | -2 | -3
Cc1ccc(C(=O)NCCn2nc(C)c(Cl)c2C)cc1 | 0 | -1
Cc1ccc2c(=O)c3cccc(CC(=O)O)c3oc2c1C | -4 | -10
O=S(=O)(NCCCCOc1ccc(Cl)cc1)c1cccc(F)c1 | -7 | -8
CC(C)CCC(C)NS(=O)(=O)C(C)C (stereo not drawn) | 0 | 13
O=C(NC(C(=O)N1CCCCC1)C1CCN(C(=O)c2ccc(C(F)(F)F)cc2)CC1)c1cccs1 (stereo not drawn) | 2 | -1
CC(C)(Oc1ccc(CCNC(=O)c2ccc(Cl)cc2)cc1)C(=O)N1CCC(c2ccc(F)cc2)CC1 | -3 | -9
COc1ccc(/C=C2N=C(/C=C/c3ccc(Cl)cc3Cl)OC\2=O)c(OC)c1OC | 18 | 6
O=C(c1ccno1)N1CCC(n2c(=O)oc3ccc(F)cc32)CC1 | 12 | 7
Cc1ccccc1-c1cc(C(=O)Nc2cccc([N+](=O)[O-])c2)c2ccccc2n1 | -8 | -12
CCOC(=O)c1nn(-c2cccc(Br)c2)c(=O)cc1OS(=O)(=O)N(C)C | -2 | 4
O=C(c1cccs1)N(Cc1c(-c2ccccc2)noc1N1CCCCC1)CC1CCCO1 (stereo not drawn) | 10 | 9
CC(C)c1cc(C2CCN(Cc3cnc[nH]3)CC2)[nH]n1 | 2 | 5
Cc1cc(N2CCC(C)C3CCCCC32)nc(-c2ccncc2)n1 (stereo not drawn) | 14 | 11
CCOc1ccc(NC(=O)c2sc3nc(-c4ccc(OC)cc4)cn3c2C)cc1 | 0 | 0
CCOc1ccccc1OCCOc1ccccc1F | 11 | 7
COCCNC(=O)Cn1c(CO)cnc1SCc1ccccc1F | 6 | 2

Only part of the results is shown, so the mix of outcomes need not match the whole.
